# From PubChem BioAssay
# Menin MLL FP FL = menin-MLL binding inhibition, fluorescein peptide | Fluorescence polarization, fluorescein-MLL peptide displacement from menin | FP activity change, % at 61.4 µM | 290,000 tested, under 10 active; inconclusive = falling polarisation curve, or a change in total fluorescence; inactive = total fluorescence flat and polarisation flat or rising; no compound was filed as active; the % refers to the polarisation; negative = inhibition;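 note: % of control where 0% means no effect; inhibitors lower the polarisation; unlabelled MLL peptide was the positive control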
# PINK1 expr mod = PINK1 expression modulation; PINK1 immunofluorescence, high-content cytometry, 24 h; Potency, µM (highest dose often 76.6 µM), without a hit: top-dose activation (PINK1 increase), hits mostly activators; 410,000 tested, 0.2% active; active = well fitted activation curve with a large enough effect; inconclusive = small, poorly fitted or top-dose-only effect; inactive = flat fitted curve, though single readings scatter; cell line not stated here;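 note: potency is the fitted concentration of half-maximal effect; % of control where 0% means no effect; nearly all actives have a fitted effect of over 65% in size; a mitochondrial uncoupler was the plate control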
#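 Stable cell line, 250 cells/well, 12 h attachment; compounds pinned at 5 concentrations, 24 h; CCCP control. Fixed with nuclear dye, primary antibodies 12 h at 10 degrees C, secondary plus cell stain; laser-scanning cytometer read.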
# Sfp PPTase inh = inhibitors of Bacillus subtilis Sfp phosphopantetheinyl transferase; AID 1490; Q9F4F7; Biochemical Sfp PPTase activity, qHTS; 310,000 tested, 3.5% active; Potency, µM, without a hit: max response, negative = inhibition, usual class: inhibitors; active = well fitted inhibition curve with a large enough effect; inconclusive = small, poorly fitted or top-dose-only effect, or another doubt; inactive = no such curve, though single readings can be large or run the other way;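 note: the enzyme is Sfp with the accession as filed and its product quenches rhodamine fluorescence; potency is the fitted concentration of half-maximal effect; 0% = enzyme reaction without inhibitor and -100% = no enzyme wells; top concentration of the series not given in the record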
#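 Compounds were incubated with enzyme (final 15 nM) for 15 min at room temperature before substrate addition started the reaction. Fluorescence at 525 nm excitation, 598 nm emission was recorded immediately and after 30 minutes.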
# TRPML1 inh = human mucolipin-1 channel inhibition; Q9GZU1; AID 624415; activity change, negative = inhibition, % (test concentration not listed); TRPML1-inducible cells, Ca2+ dye fluorescence, FDSS; active compounds read low; inhibition of EC80 agonist-evoked calcium signal; 390,000 tested, 0.02% active; in the data active means activity change below about -50%; inconclusive means about -30% to -50%; inactive means above about -30%;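 note: stimulus is agonist 54-4 at its EC80 concentration; % is set by controls: 0 for no effect and ±100 for the full control effect; compound concentration not given in the record; the text of the record puts the active cut at -80%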
#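 Calcium fluorescence in TRPML1-DL cells induced overnight with Tet: a 110 s read after compound pin addition, then a 110 s antagonist read after challenge with 54-4 at 4 uM final (EC80).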
# TRPV1 PAM = human TRPV1 potentiation; Q8NER1; TRPV1-expressing cells, Fluo-8 calcium influx, capsaicin EC20 potentiation; host cell line not named in the record; control for the full effect not named in the record; potentiation, % at 8.33 µM; 320,000 tested, 0.02% active; AID 540277; active means potentiation above 80%; inconclusive means 30% to 80%; inactive means below 30%; note: 0% is about no effect
# Target sequence (Q8NER1 whole entry, looked up): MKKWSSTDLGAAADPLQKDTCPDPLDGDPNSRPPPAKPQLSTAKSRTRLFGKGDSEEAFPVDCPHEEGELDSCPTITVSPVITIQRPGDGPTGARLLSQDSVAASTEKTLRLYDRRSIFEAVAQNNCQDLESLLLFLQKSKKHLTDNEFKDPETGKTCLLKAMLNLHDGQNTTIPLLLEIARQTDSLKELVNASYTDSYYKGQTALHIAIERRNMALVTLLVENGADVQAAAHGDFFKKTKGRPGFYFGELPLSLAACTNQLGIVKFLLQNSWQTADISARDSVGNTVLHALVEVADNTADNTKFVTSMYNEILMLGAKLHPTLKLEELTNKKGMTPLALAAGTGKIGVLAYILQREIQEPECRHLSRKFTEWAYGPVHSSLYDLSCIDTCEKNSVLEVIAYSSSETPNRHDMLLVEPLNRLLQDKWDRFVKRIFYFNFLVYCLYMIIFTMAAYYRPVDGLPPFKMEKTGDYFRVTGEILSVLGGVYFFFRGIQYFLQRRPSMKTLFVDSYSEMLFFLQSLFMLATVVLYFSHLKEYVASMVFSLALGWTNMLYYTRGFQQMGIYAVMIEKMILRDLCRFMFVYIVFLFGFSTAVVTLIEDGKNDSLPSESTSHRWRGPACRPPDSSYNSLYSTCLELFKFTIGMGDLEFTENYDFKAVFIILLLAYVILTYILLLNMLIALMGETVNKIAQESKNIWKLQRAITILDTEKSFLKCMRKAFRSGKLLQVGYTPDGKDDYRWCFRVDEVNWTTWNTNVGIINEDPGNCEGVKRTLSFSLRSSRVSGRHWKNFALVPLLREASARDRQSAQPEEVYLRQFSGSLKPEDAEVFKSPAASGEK
#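 Fluo-8 calcium influx in TRPV1-expressing cells, kinetic read (ex 480/em 520 nm). Compound added and read 3 min for agonist activity, followed by capsaicin at EC20 final and 2 min further read for enhancement.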
# ClpP mod = qHTS Assay for Activators of ClpP | ATP-dependent Clp protease proteolytic subunit (Bacillus subtilis (strain 168)), P80244 | purified B. subtilis ClpP, FRET peptide cleavage, 20 min | Potency, µM (doses to about 57.5 µM), inactives show at the top dose activity change, negative = active | 340,000 tested, 1.9% active | AID 651965, 2013; active = well fitted falling curve with a large enough effect; inconclusive = small, poorly fitted or top-dose-only effect; inactive = no such curve, though single readings can be large or run the other way; note: potency is the fitted concentration of half-maximal effect; the source files actives as falling curves though it sought activators and does not explain the sign; nearly all actives have a fitted effect of over 65% in size; many hits overshoot -100%
# Target sequence (P80244 whole entry, looked up): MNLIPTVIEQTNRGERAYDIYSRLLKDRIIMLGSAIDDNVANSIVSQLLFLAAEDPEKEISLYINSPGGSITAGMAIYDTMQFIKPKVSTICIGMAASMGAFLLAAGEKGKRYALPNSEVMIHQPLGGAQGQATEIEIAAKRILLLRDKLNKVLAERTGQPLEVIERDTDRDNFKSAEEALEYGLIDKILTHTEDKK
#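 FRET quenching reversal measured ClpP activation: 10 microg/mL B. subtilis ClpP at pH 8 with the FRET-FV decapeptide, read at 430 nm after 320 nm excitation. The 20-min minus 0-min signal was scaled between DMSO/no-enzyme wells and ADEP (5.8 microM final).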
# TRPML1 ag = agonists of human TRPML1 channel; activation, % (test concentration not listed); TRPML1-expressing cells, Ca2+ dye fluorescence, FDSS; host cell line not named in the record; reference of the full effect not given here; 410,000 tested, 0.12% active; AID 624414; in the data active = activation above about 50%; inconclusive = about 30% to 50%; inactive = below about 30%; note: 0% is about no effect; the text of the record puts the active cut at 80%
#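 Tetracycline-induced TRPML1-DL cells are seeded and incubated overnight before loading with a no-wash Ca2+ dye and quencher. Agonist activity is taken from the 110 s fluorescence read following compound pin-transfer on an FDSS, before EC80 54-4 challenge.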
# * marks the source's active call; other numbers are inactive results; ? = inconclusive; · = not tested or not shown; & = joins results of further samples; [ ] = dose if it differs, or a comment.
SMILES,Menin MLL FP FL,PINK1 expr mod,Sfp PPTase inh,TRPML1 inh,TRPV1 PAM,ClpP mod,TRPML1 ag
COc1ccc(C2C(C(=O)NCc3cccnc3)c3ccccc3C(=O)N2C)cc1OC (configuration not stated),1.5,-1.5%,-8%,22,-6,-1.1%,0.4
Cc1cc2c(cc3c(SCc4cccc(F)c4)nnc(C)n32)o1,·,1.7%,·,46,·,-11%,2.4
Cc1cc2cc(CNC(=S)NC3CCCCC3)ccc2n1C,-6.0,1.5%,14%,-4,1,-8.1%,0.9
COc1cccc(CNC(=O)c2c(O)nc3ccccn3c2=O)c1,·,-0.6%,·,-5,·,-6.0%,-1.2
O=[N+]([O-])c1ccccc1/C=C/C=N/n1c(-c2cc(-c3ccccc3)n[nH]2)n[nH]c1=S,-0.8,13%,18µM*,-1,·,·,1.8
CCOc1ccc(CN(C)c2ccc(S(=O)(=O)N3CCN(C)CC3)cc2[N+](=O)[O-])cc1OC,·,-1.6%,·,-5,-7,4.4%,0.7
Cc1cccc(NC(=O)c2ncn3c2C(=O)N[C@H](C)C3)c1,·,0.6%,·,·,·,-1.4%,-0.4
CCCCNC(=O)c1cc(-c2ccc(OC)cc2)on1,-1.7,26%[38.3 µM],-18%,1,3,-5.3%,1.1
CCn1c(C(C)NC(=O)c2cccc(C)c2)n[nH]c1=S (configuration not stated),4.3,-1.6%,-5%,3,3,-0.1%,2.0
O=C(c1ccco1)N1CCN(C(c2ccccc2)c2nnnn2Cc2cccs2)CC1 (configuration not stated),-1.5,-1.7%,79µM*,44,16,2.0%,-0.4
COc1ccccc1-c1noc(-c2ccc(NCc3cccnc3)c([N+](=O)[O-])c2)n1,·,5.5%,·,-4,·,-0.5%,-0.3
CC(NC(=O)c1ccc(Cn2c(SCc3ccccc3)nc3cccnc32)cc1)c1ccccc1 (configuration not stated),·,7.2%,·,1,·,5.1%,3.2
O=C(CCl)N(Cc1ccccc1)c1ccccc1,-0.9,-2.1%,11%,11,25,-0.4%,2.5
Cc1ccc(N=Nc2c(C)[nH]n(-c3ccccc3)c2=O)cc1Br,-1.4,2.8%,-1%,·,-9,0.3%,·
Cc1cccc(N2CC(C(=O)O)CC2=O)c1C (configuration not stated),-0.1,-0.4%,11%,-4,3,·,-0.7
CCCN1C(=O)C2(/C(=C(\O)c3ccc4c(c3)OCCO4)C(=O)C(=O)N2CCCOC)c2ccccc21 (configuration not stated),-0.9,-1.4%[38.3 µM],8%,-1,5,1.4%,-0.2
Cc1ccc2c(c1)N(S(=O)(=O)c1ccc(CN3C(=O)c4cccnc4C3=O)s1)CCO2,·,1.0%,1%,20,6,1.0%,0.0
O=C(CSc1ncnc2ccccc12)NCCc1ccccc1,0.3,-0.9%,17%,-9,-8,·,-0.6
O=C(NCc1ccccc1)c1cccc(NS(=O)(=O)c2cccc3cccnc23)c1,0.2,-1.6%,24%,0,8,-15%,0.5
O=S(=O)(NCC(c1ccco1)N1CCN(c2ccccc2)CC1)c1cc(F)ccc1F (configuration not stated),·,-1.8%,·,-16,·,-6.0%,2.0
CC1=Nc2cc(C(=O)N3CCC(C)CC3)ccc2Sc2ccc(Cl)cc21,·,0.0%,·,12,·,-0.6%,-0.2
CCN(CC)S(=O)(=O)c1ccc(C(=O)Nc2cc(C)cc(C)c2)cc1,6.2,0.8%,24%,17,-10,-1.9%,1.6
Cc1cc(N2CCN(c3ccccn3)CC2)n2cc(-c3ccccc3)nc2n1,1.8,3.9%,-16%,5,20,28µM*,0.4
Cc1cc(C)c(S(=O)(=O)c2cc(F)ccc2C)c(=O)[nH]1,-3.3,-0.8%,27%,-2,-3,-27%,-0.2
CC(=O)C1=C(C)NC(=O)CC1c1ccc(Br)cc1 (configuration not stated),2.0,4.1%,11%,0,6,·,-0.5
CCNCc1cc(Br)c(OCC(=O)Nc2ccccc2)c(OC)c1,-2.6,·,-2%,20,21,0.5%,0.9
COCCCn1c(=O)/c(=C\c2ccccc2OC(F)F)s/c1=C(/C#N)C(N)=O,?,35µM*,4%,3,8,·,0.3
O=C(O)c1cccc(NC(=O)c2cccc(S(=O)(=O)N3CCCCC3)c2)c1,0.4,·,8%,24,-5,-2.1%,0.3
O=C(Nc1nc(-c2ccccc2)cs1)c1ccc(=O)[nH]c1,6.2,-0.6%,0%,-15,-8,-3.3%,0.6
Cc1cc(C(F)(F)F)n2nc(-c3sccc3-n3cccc3)cc2n1,1.1,8.6%,-25%,-11,·,-1.6%,0.3
Cc1c(Cl)cccc1NCC(=O)NN=C1CCCC1,3.0,2.6%,12%,-21,-7,·,0.6
COc1cccc(C(c2c(NC(=O)c3ccco3)sc(C)c2C)N2CCOCC2)c1 (configuration not stated),·,4.6%,·,4,-10,-5.9%,5.3
O=C(O)C1C2CCC(C2)C1C(=O)Nc1cccc([N+](=O)[O-])c1 (configuration not stated),0.0,-0.5%,4%,2,11,·,-1.0
CCC(c1nnnn1-c1c(C)cccc1C)N1CCCN(Cc2ccc(F)cc2)CC1 (configuration not stated),·,0.5%,·,·,·,0.6%,-0.7
COCCNC(=O)CCSc1nc(-c2ccc3c(c2)OCO3)cc(C(F)(F)F)n1,·,0.6%,·,7,·,-3.8%,2.7
C[C@@H]1CNC(=O)c2c(C(=O)Nc3ccc(CNC(=O)OC(C)(C)C)cc3)ncn21,·,0.8%,·,1,·,-0.1%,-0.2

# Copied from the list:
# Value for Cc1cc(C)c(S(=O)(=O)c2cc(F)ccc2C)c(=O)[nH]1 under Menin MLL FP FL: -3.3
# Value for CC(NC(=O)c1ccc(Cn2c(SCc3ccccc3)nc3cccnc32)cc1)c1ccccc1 (configuration not stated) under ClpP mod: 5.1%

# Next section.
SMILES,Menin MLL FP FL,PINK1 expr mod,Sfp PPTase inh,TRPML1 inh,TRPV1 PAM,ClpP mod,TRPML1 ag
CCOC(=O)c1cc(OC(=O)c2ccccc2Cl)n(-c2ccccc2)n1,·,4.6%,·,16,1,-20%,-0.7
O=C(CCc1nnc2ccc(N3CCCC3)nn12)Nc1ccc(F)c(F)c1,3.8,3.1%,18%,3,-3,-14%,-0.9
COc1ccc(/C=C/C(=O)c2cccc(-n3cnnn3)c2)cc1O,-3.2,-1.4%,-4%,-12,25,·,0.8
Cc1cc(C)nc(SCC(=O)Nn2cnnc2)n1,?,-1.2%,6%,8,5,0.0%,-0.2
O=C(CN1C(=O)/C(=C/c2ccccc2)SC1=S)Nc1cccnc1,8.1,1.3%,-18%,9,-3,0.5%,1.4
CN1CCN(NC(=O)c2cc(Br)ccc2Cl)CC1,3.0,-2.4%,2%,-14,3,·,0.2
COc1ccc2c(c1)SC(C)CC2=O (configuration not stated),2.0,0.3%,-1%,7,27,-12%,1.0
CCCOCc1cc(CN2CCN(c3cccc(Cl)c3)CC2)c(O)c2ncccc12,·,?,·,11,·,-0.8%,0.1
Cc1ccc(N2CC(NC(=O)c3ccccc3C(F)(F)F)CC2=O)cc1C (configuration not stated),·,1.6%,·,9,·,-2.9%,-0.9
COc1ccc(CCN(C)Cc2c(O)ccc3ccccc23)cc1OC,-0.8,1.8%,7%,4,4,·,-0.2
Cc1cccc(-n2cc(-c3ccccc3)c3c(=O)[nH]cnc32)c1,4.7,-1.7%,-15%,-1,1,-2.9%,2.7
COc1ccc(NC(=O)c2ccc3nc[nH]c3c2)c(OC)c1,-0.3,2.4%,18%,7,6,·,0.0
OCCN1CCN(CCOc2cccc(Cl)c2)CC1,-1.1,0.6%,6%,12,12,0.8%,0.7
N#C/C(=C/c1ccc(N2CCCCC2)o1)C(=O)NCCc1c[nH]c2ccccc12,?,11µM*,-16%,-12,20,-1.9%,?
OCC[C@@H]1C[C@H](O)[C@@H](O)[C@@]2(OCCc3ccccc32)O1,1.5,2.4%,17%,-7,-8,-3.4%,-0.8
O=C(COC(=O)c1cccc2c1C(=O)c1ccccc1C2=O)NC1CCCCC1,0.1,-0.9%,-15%,4,3,·,4.3
COc1cc(SC)ccc1C(=O)Nc1ccc2c(c1)OCCO2,-0.4,-6.6%[38.3 µM],-8%,24,-10,-1.4%,1.3
COc1ccc(OC)c(NC(=O)CCCSc2ccccc2)c1,1.0,2.2%,-16%,12,6,·,2.9
CCn1c(=O)c(=O)n(CC)c2cc(S(=O)(=O)Nc3ccc(C)cc3)ccc21,0.5,4.6%&0.3%,10%,27&-1,-9,0.5%&-2.2%,0.9&1.2
COc1ccc(Cn2c(CNC(=O)c3ccc(N(C)C)cc3)nc3cccnc32)cc1,·,-0.7%,·,-11,·,7.2%,-0.9
Cn1c(=O)c2c(nc(Br)n2CC(=O)c2cccs2)n(C)c1=O,-2.1,-1.8%,-15%,82,2,28µM*,0.8
Cc1ccc(-c2nc3nc(C)cc(C)n3c2Nc2ccc3c(c2)OCCO3)cc1,·,-1.7%,·,-23,·,-8.3%,1.7
CCCCOc1cccc(C(=O)Nc2cccc(-c3nc4ncccc4o3)c2C)c1,·,3.5%,·,-11,·,8.9%,0.2
CCOc1cc(C(=S)N2CCCCC2)ccc1OS(=O)(=O)c1ccc(Br)cc1,-1.8,1.3%[38.3 µM],17%,75,7,0.0%,1.1
COc1ccc(C(=O)N2CC(=O)Nc3ccc(Br)cc3C2c2ccc(F)cc2)cc1OC (configuration not stated),·,-0.8%,·,25,·,0.3%,5.1
CCN(CC)c1ccc(C2NC(=O)NC(C)=C2C(=O)Nc2ccccc2)cc1 (configuration not stated),9.9,0.4%,-16%,-8,6,-2.1%,1.7
Cc1ccc(CNC(=O)C2CCN(S(=O)(=O)c3ccc4c(c3)CC(C)N4C(=O)C3CC3)CC2)cc1 (configuration not stated),0.5,-0.6%,9%,12,20,-1.2%,1.8
CCOC(=O)[C@H]1[C@H]2COc3ccc(Br)cc3[C@H]2N2C(=O)CNC(=O)[C@@]12C,·,1.1%,·,-10,-6,-0.3%,-0.3
COc1cccc(NC(=O)CN(C)C(=O)c2ccccc2OCC(=O)Nc2cccc(C(F)(F)F)c2)c1,·,2.8%,·,4,-19,-2.1%,0.3
Cc1cc(C)n(CC(=O)N/N=C/c2ccccn2)n1,·,0.3%,18µM*,-11,?,-0.7%,-0.4
COC(=O)CCC(NS(=O)(=O)OCC(Cl)(Cl)Cl)c1ccccc1 (configuration not stated),-6.8,3.5%,5%,0,-13,2.3%,-0.7
